# Cruzain inh noDet: blocks cruzain activity in detergent-free assay; P25779; purified cruzain, Z-FR-AMC fluorescence, no detergent; Potency, µM, for inactives: max response, negative = inhibition, most hits filed as inhibitors; 200,000 tested, 2.3% active; AID 1476;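 further: plate controls were enzyme without inhibitor for no effect and buffer without enzyme for full effect; nearly all actives have a fitted effect of over 40% in size; top concentration of the series not given in the record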
# Target sequence (P25779 123-467 limits assumed): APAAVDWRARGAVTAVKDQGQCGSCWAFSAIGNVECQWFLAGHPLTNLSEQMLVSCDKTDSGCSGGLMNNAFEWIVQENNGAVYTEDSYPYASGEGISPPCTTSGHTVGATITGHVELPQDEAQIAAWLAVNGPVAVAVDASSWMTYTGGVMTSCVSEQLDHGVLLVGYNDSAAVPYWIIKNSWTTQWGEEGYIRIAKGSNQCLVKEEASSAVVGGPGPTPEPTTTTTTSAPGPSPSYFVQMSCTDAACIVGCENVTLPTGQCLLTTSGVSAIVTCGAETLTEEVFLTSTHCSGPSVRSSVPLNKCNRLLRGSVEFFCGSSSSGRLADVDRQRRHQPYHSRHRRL
#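 Purified cruzain at 1.5 nM, pre-incubated 15 min with compound at room temperature in 100 mM sodium acetate pH 5.5, 5 mM DTT, 0.00005% Triton X-100. Reaction started with 2 uM Z-FR-AMC; AMC fluorescence increase over 60 s gives rate.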
# MARV entry inh: blocks Marburg virus binding to or entry into cells | 300,000 tested, 1.8% active | Marburg virus pseudotyped entry inhibition, cell reporter; control for the full effect not named in the record; about a third of the inactives were read at about 46 µM | AID 540276 | Potency, µM (series often up to 37.8 µM), for the others: at the highest dose activity change, negative = inhibition, actives largely listed as inhibitors; active = well fitted inhibition curve with a large enough effect; inconclusive = small, poorly fitted or top-dose-only effect, or effect the other way; inactive = flat fitted curve, though single readings scatter; tested in HEK293 cells; about a fifth of its hits are not listed in these tables; further: on the % scale 0 is the no-effect control and ±100 the full control effect; luciferase read-out
# Cruzain inh Det: inhibitors of Trypanosoma cruzi cruzain with detergent | P25779 | 200,000 tested, 0.43% active | purified cruzain, Z-FR-AMC fluorescence, 0.01% Triton | Potency, µM, for the others: max response, negative = inhibition, usual class: inhibitors;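 further: plate controls were neutral wells for no effect and buffer without enzyme for full effect; nearly all actives have a fitted effect of over 40% in size; top concentration of the series not given in the record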
#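 Steps: dispense cruzain (1.5 nM final) in acetate buffer pH 5.5 with DTT and 0.01% Triton X-100; pin-transfer compounds; incubate 15 min RT; add Z-FR-AMC (2 uM final); read fluorescence every 30 s, using the 60 s intensity change.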
# NS1 function inh: influenza NS1 inhibition; Potency, µM (top dose mostly 46.1 µM), inactives show top-dose activity, positive = more growth; S. cerevisiae slowed by influenza A NS1, growth recovery by OD600; 270,000 tested, 0.4% active; active means well fitted rising curve with a large enough effect; inconclusive means small, poorly fitted or top-dose-only effect; inactive means no such curve, though single readings can be large or run the other way; further: nearly all actives have a fitted effect of over 50% in size
#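 Growth recovery, yeast-based: influenza A NS1 expressed in S. cerevisiae causes slow growth, and suppressors are detected by OD600. The parent strain without NS1 is used as positive control.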
# 2A StopGo: lowers the luciferase signal of an FMDV 2A StopGo reporter; human cells with a luciferase reporter of 2A StopGo recoding; control for the full effect not named in the record; Potency, µM (titrated, usually from 57.9 µM), without a hit: top-dose signal change, negative = less light; 410,000 tested, 1.2% active; active = well fitted falling curve with a large enough effect; inconclusive = small, poorly fitted or top-dose-only effect; inactive = no such curve, though single readings can be large or run the other way; tested in HEK293T cells; further: on the % scale 0 is the no-effect control and ±100 the full control effect; nearly all actives have a fitted effect of over 45% in size; luciferase light after 4 h
# Lassa entry inh: inhibitors of Lassa virus binding or cell entry | Lassa virus pseudotype entry inhibition, cell reporter; control for the full effect not named in the record | AID 540256 | 300,000 tested, 1.2% active | Potency, µM (top dose mostly 37.9 µM), for the others: at the highest dose activity change, negative = inhibition, most hits filed as inhibitors; active means well fitted inhibition curve with a large enough effect; inconclusive means small, poorly fitted or top-dose-only effect, or effect the other way; inactive means flat fitted curve, though single readings scatter; tested in HEK293 cells; further: on the % scale 0 is the no-effect control and ±100 the full control effect; nearly all actives have a fitted effect of over 50% in size; luciferase read-out
# RE007 growth inh: less growth of the S. pombe RE007 Vpr strain; AID 651644; Potency, µM (doses to about 92.2 µM), for the others: at the highest dose activity change, negative = less growth; S. pombe RE007 Vpr strain, BacTiter-Glo ATP luminescence, 24 h; control for the full effect not named in the record; 360,000 tested, 0.21% active; active = well fitted falling curve with a large enough effect; inconclusive = small, poorly fitted or top-dose-only effect; inactive = no such curve, though single readings can be large or run the other way;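 further: on the % scale 0 is the no-effect control and ±100 the full control effect; nearly all actives have a fitted effect of over 50% in size; the assay follows cell death caused by Vpr and the record does not say whether a fall means rescue or toxicity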
#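 Fission yeast RE007 carrying one integrated HIV-1 vpr copy, seeded at OD 0.01 in PMG+AL medium with 23 nL pinned compound. Grown 24 h at 30 degrees; viability read by BacTiter-Glo luminescence after 5 min.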
# SARS PLP yeast: SARS-CoV PLP inhibition in yeast | S. cerevisiae expressing SARS-CoV PLpro, growth rescue; control for the full effect not named in the record | Potency, µM (titrated, usually from 32.9 µM), without a hit: top-dose activity, positive = growth rescue | 330,000 tested, 0.19% active; active means well fitted rising curve with a large enough effect; inconclusive means small, poorly fitted or top-dose-only effect; inactive means no such curve, though single readings can be large or run the other way; further: 0% is about no effect; nearly all actives have a fitted effect of over 55% in size; growth read by luminescence after 48 h
# Numbers without * were called inactive; ? = inconclusive; nt = no result given; & = joins results of further samples; [ ] = another dose, or the depositor's remark. Unless noted, the call rests on the fitted dose curve; in most records, active means well fitted curve in the direction sought with a large enough effect; inconclusive means small, poorly fitted or top-dose-only effect, or another doubt; inactive means no such curve, though single readings can be large; an effect the other way counts as inactive or inconclusive. Potency means the concentration at half of the fitted maximal effect.
SMILES,Cruzain inh noDet,MARV entry inh,Cruzain inh Det,NS1 function inh,2A StopGo,Lassa entry inh,RE007 growth inh,SARS PLP yeast
O=C(Cn1ncn2nc(-c3cccs3)cc2c1=O)NCc1ccccc1Cl,-5%,-15%[46.1 µM],-1.5%,nt,-8%,6%[46.1 µM],nt,nt
Cc1ccccc1-c1cccc([C@@H]2C[C@H]3CN(Cc4cccnc4)C(=O)[C@]34CCCN24)c1,nt,?,nt,3%,-16%,?,-3%,0%
NC(=O)N(CCC(=O)O)c1ccccc1,0%,-12%&-12%,-2.8%,7%,-12%,-4%,4%,-13%
Cc1ccc(C2(SCC(N)C(=O)O)c3ccccc3-c3ccccc32)cc1 (configuration not stated),nt,-18%,nt,nt,-2%,0%,15%,nt
COc1cc2c(cc1OC)C(COc1ccccc1OC)N(C(=O)CC(C)C)CC2 (configuration not stated),-13%,nt,0.1%,nt,-3%,0%[46.1 µM],nt,nt
COc1ccc(CC(=O)Nc2ccc(C)cc2O)cc1S(=O)(=O)N1CCOCC1,nt,0%,nt,nt,-11%,14%,-15%,-1%
CSc1ccc(C(c2c(C)[nH][nH]c2=O)c2c(C)[nH][nH]c2=O)cc1,nt,-8%[46.1 µM],nt,3.2µM*,-10%,-11%[46.1 µM],-10%,-5%
CCc1ccc(Nc2nnc(SCC(=O)Nc3cccnc3Cl)s2)cc1,19%,0%,-8.5%,17%,6%,-2%,-1%,-7%
CCN(CCCNC(=O)c1nn(-c2ccc(OC)cc2)c(=O)c2c1c1ccccc1n2C)c1ccccc1,-3%,-25%[46.1 µM],0.6%,nt,-22%,6%[46.1 µM],nt,nt
O=C(O)C/C(=C\c1ccc2c(c1)OCO2)c1nc2ccccc2s1,nt,3%[46.1 µM],nt,-59%,32%[activator],7%,29%,-6%
CC(=O)N1CCc2cc(Br)cc(S(=O)(=O)NCCCN(C)Cc3ccccc3)c21,nt,-24%[46.1 µM],nt,10%,27%,4%,11%,13%
CC(=O)Nc1cccc(C(=O)NCCc2ccco2)c1,nt,-4%[46.1 µM],nt,1%,13%,-21%,-14%,1%
CCOc1ccc(N(CC(=O)NC2CCCCCC2)S(=O)(=O)c2c(C)noc2C)cc1,1%,8%,3.1%,-74%,-17%,nt,-6%,-11%
CCC1(c2ccccc2)NC(=O)N(CC(=O)N(CC(=O)Nc2ccccc2C(F)(F)F)Cc2ccco2)C1=O (configuration not stated),nt,7%,nt,nt,17%,-28%,16%,-1%
CN(C)Cc1c(-c2ccc(Cl)cc2)nc2ccc(Cl)cn12,nt,?,nt,nt,-22%,-7%[46.1 µM],-4%,2%
Cc1ccc(-c2noc(-c3ccc(N4CCCC4)c([N+](=O)[O-])c3)n2)cc1,5%,?,-5.6%,nt,0%,-3%[46.1 µM],nt,nt
COc1ccc2oc(C)c(C(=O)c3ccc(C)cc3)c2c1,nt,nt,nt,-34%,15%,nt,-18%,-7%
COCCn1c(C)cc(C(=O)CN2c3cccc4cccc(c34)S2(=O)=O)c1C,nt,-2%,nt,nt,35%[activator],7%,26%,1%
Oc1cc(O)c2c(c1)OC(c1ccc(O)c(O)c1)C(O)C2 (configuration not stated),-4%,?,-14%,nt,-21%,?,-12%[18.4 µM],nt
COc1ccc(C(=O)N/N=C/c2ccc(OC)c(CN3CCN(c4ccc(F)cc4)CC3)c2)cc1,6%,0%,-9.8%,28%,?,10%,-7%,3%
CCc1ccc(/C=N/NC(=O)c2c[nH]c3ccccc23)s1,2%,21%,-15%,-27%,40%[activator],?,5%,8%
Cc1ccc(N(C(=O)c2csnn2)C(C(=O)NC(C)(C)C)c2ccncc2)cc1 (configuration not stated),3%,3%,1.6%,6%,nt,10%,-5%,-22%
COc1ccccc1/C=C/c1onc(C)c1S(=O)(=O)N1CCC(C(=O)NC2CCCCCC2)CC1,nt,nt,nt,-2%,6%,nt,-4%,1%
CCOC(=O)C(=CNc1cc(Cl)c(-c2ccco2)c(Cl)c1)C(=O)OCC,nt,nt,nt,5%,-26%,nt,-11%,-1%
Cc1nnc(SCC(=O)N2CCC(C(N)=O)CC2)s1,-10%,?,0.2%,5%,7%,1%,2%,-4%
CCc1ccc2nc(N(CCCN(C)C)C(=O)c3ccc(S(=O)(=O)N4CCc5ccccc5C4)cc3)sc2c1,nt,?,nt,-8%,-18%,-17%,6%,?
Cc1nnn(C23CC4CC(CC(C(=O)NN)(C4)C2)C3)n1,5%,4%,-0.7%,21%,-13%,6%,15%,2%
CCOc1ccc(NC(=O)c2ccc3nc(Cc4ccccc4)oc3c2)cc1,-7%,nt,-0.3%,nt,-23%,-16%[46.1 µM],nt,nt
O=C(COC(=O)CCOc1ccccc1)Nc1ccc(Cl)cn1,-2%,7%,-5.4%,3%,?,20%,-14%,2%
CCC(C)N(C(=O)COc1ccccc1C(=O)NCc1ccccc1)C1CCS(=O)(=O)C1 (configuration not stated),nt,2%,nt,-2%,-10%,-1%,1%,0%
COc1cc2c(cc1OC)C(c1ccccc1F)NCC2 (configuration not stated),nt,nt,nt,3%,-6%,nt,1%,-4%
COc1ccccc1-n1c(SCC(=O)N2CCCC2)nnc1-c1ccccc1,nt,?,nt,0%,-11%,-21%,17%,-1%
CC(C)[C@H](NC(=O)NC1CCCC1)C(=O)O,1%,3%,1.8%,-2%,2%,-1%,10%,-5%
CC(OC(=O)CN1C(=O)NC2(CCCC2)C1=O)C(=O)c1ccccc1 (configuration not stated),nt,-2%,nt,nt,4%,15%,-9%,1%
CCOC(=O)N1CCN(C(=O)COc2cccc3c2CCN(CC)C3=O)CC1,nt,5%,nt,nt,-13%,-3%,-5%,3%
CCOc1cc(C(=O)N2CCN(c3ccc(C(C)=O)cc3)CC2)cc(OCC)c1OCC,?,-25%,-10%,-19%,-14%,-13%,2%,2%
COc1ccc(C(C)=O)cc1Cn1c(=O)cc(C)[nH]c1=O,nt,14%[46.1 µM],nt,-12%,-2%,3%,-6%,6%
COc1cccc(/C=N/n2cncn2)c1OCC#N,-10%,?,-9.2%,3%,5%,1%,2%,1%
CC(Oc1ccccc1)C(=O)N/N=C/c1ccccn1 (configuration not stated),nt,11%,nt,nt,-23%,7%,-12%,-2%
COCCOc1ccc(C(F)(F)F)cc1Nc1nc2ccccc2o1,?,15%,-11%,-4%,2%,-16%,-6%,-3%
COc1ccc(-n2ncc(C(=O)Nc3cccc(C(F)(F)F)c3)c2C2CCN(C(=O)OC(C)(C)C)CC2)cc1,-23%,nt,-2.5%,nt,-23%,?,nt,nt
COc1ccc(Nc2ncc(C(=O)Nc3cc(C)ccc3OC)c3ccccc23)cc1,?,?,-8.7%,nt,-24%,?,nt,nt
COc1cccc(CN(C)C(=O)c2ccc(NC(=O)CC3SC(N4CCCC4)=NC3=O)cc2)c1OC (configuration not stated),nt,3%,nt,nt,1%,-1%,5%,3%
O=C(NCc1nc(-c2ccc(Cl)cc2)no1)c1ccc2c(c1)OCO2,nt,4%[46.1 µM],nt,-28%,-19%,11%,8%,-20%
COc1ccccc1CC(=O)N(Cc1ccccc1)c1ccc(C)cc1,nt,nt,nt,-27%,0%,nt,-14%,-8%
COc1cccc(NC(=O)c2cccnn2)c1,nt,nt,nt,-1%,23%,nt,0%,-1%
O=C(COc1ccccc1[N+](=O)[O-])N(Cc1cccc(Br)c1)C1CCS(=O)(=O)C1 (configuration not stated),nt,nt,nt,1%,-17%,nt,-11%,7%
CCCCn1c(N)c(N(Cc2ccccc2OC)C(=O)COc2ccccc2C#N)c(=O)[nH]c1=O,nt,nt,nt,3%,-25%,nt,27%,-1%
O=C(CS(=O)(=O)c1ccc(F)cc1)N1CCN(c2ccccc2)CC1,nt,22%,nt,nt,31%[activator],24%,3%,-2%
COCCCNC(=O)CSc1nc2cc3c(cc2c(=O)n1CCCC(=O)NCc1ccc2c(c1)OCO2)OCO3,-2%,nt,0.9%,nt,-4%,7%[46.1 µM],nt,nt
CCC(CC)C(=O)Nc1ccc([N+](=O)[O-])cn1,nt,8%[46.1 µM],nt,nt,-18%,0%[46.1 µM],-20%,1%
CC(C)Oc1ccc(C(=O)Nc2ccccc2N2CCCC2)cc1,3%,-27%,0.8%,-11%,-17%,-28%,-22%,-21%
CCN(CC)S(=O)(=O)c1cc(NC(=O)CN2C(=O)NC(C)(c3ccccc3)C2=O)ccc1C (configuration not stated),nt,1%[46.1 µM],nt,-5%,-2%,?,-5%,2%
Cc1csc(SCC(=O)Nc2sccc2C(N)=O)n1,nt,?,nt,nt,22%,0%,12%,0%
CCOc1ccc(N/C(=N/c2nc(C)cc(C)n2)NC(C)=O)cc1,nt,-15%[46.1 µM],nt,5%,-5%,?,-6%,-2%
O=C(NCc1ccc(Cl)cc1)c1cc2c(s1)-c1ccccc1SC2,-79%,?,-7.3%,nt,-9%,-4%[46.1 µM],nt,nt
COc1cccc(CN2CCN(C(=O)c3cc(-c4ccncc4)nc4ccc(C)cc34)CC2)c1,nt,?,nt,nt,0%,-35%,?,nt
O=C(CSc1nc2ccccc2c(=O)[nH]1)Nc1ccccc1O,nt,6%[46.1 µM],nt,3%,3%,-19%,4%,0%
CCc1ccccc1N1C(=O)c2ccccc2S1(=O)=O,-24%,-25%,-3.9%,-2%,0%,9%,7%,2%
COc1cc(S(=O)(=O)NC2CC(C)(C)NC(C)(C)C2)c(OC)cc1Cl,nt,?,nt,-4%,0%,-3%[46.1 µM],-15%,3%

# Going on with the list.
SMILES,Cruzain inh noDet,MARV entry inh,Cruzain inh Det,NS1 function inh,2A StopGo,Lassa entry inh,RE007 growth inh,SARS PLP yeast
COC(=O)C(CCSC)NC(=O)c1cccc([N+](=O)[O-])c1 (configuration not stated),-1%,-11%,3.3%,5%,21%,-23%[14.3 µM],14%,-3%
CCOCCCN(C)C1CCN(C(=O)c2oc3ccccc3c2NC(=O)c2cccc([N+](=O)[O-])c2)CC1,nt,?,nt,-9%,26%,?,-7%,-1%
COCC(=O)NC1CCCCCC1,nt,25%,nt,7%,-12%,?,5%,2%
CNC(=O)c1ccccc1Nc1ccc(SC(F)F)cc1,nt,nt,nt,-87%,4%,nt,5%,-17%
COc1ccc(CNC(=O)CN(Cc2ccccc2F)C(=O)c2csnn2)cc1,nt,1%[46.1 µM],nt,-3%,7%,?,-3%,-1%
CCc1ccc(C(=O)/C=C/c2ccc([N+](=O)[O-])o2)cc1,2%,?,-6.8%,-219%,35µM*,?,-11%,-35%

# Screening data: PubChem, National Center for Advancing Translational Sciences (NCATS)
